HIV fusion peptide – inhibitors of HIV fusion peptide binding, primary screen, biochemical, uHTS, fluorescence dequenching (AID 1986). 290,000 tested, 0.3% active. cell-free peptide binding, fluorescence dequenching, 30 min; higher % means a stronger effect. one-dose inhibition, % at 20 µM; IC50 in µM for titrated hits; in the data active = inhibition mostly above about 52%, no sharp cut-off; inactive = mostly below about 76%; note: some results filed as inactive read as strong as hits
GPR55 beta-arrestin – GPR55 agonists via beta-arrestin recruitment, primary screen, imaging, U2OS cells, beta-arrestin-GFP redistribution (AID 1961) | U2OS GPR55 beta-arrestin-GFP redistribution imaging; higher % means a stronger effect | activation, % at 10 µM; hits with a dose series show EC50 in µM | 290,000 tested, 0.048% active;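 active = activation above 40% with more than 50 cells counted in the well; inconclusive = wells holding fewer than 50 cells, flagged as toxic or sparse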;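 note: U2OS osteosarcoma cells stably expressing GPR55 and beta-arrestin-GFP; plate controls were DMSO negative control for no effect and LPI positive control for full effect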
KOR beta-arrestin-1 – KOR agonists, beta-arrestin recruitment, primary screen, cell-based, luminescence, uHTS (AID 1777); Kappa-type opioid receptor (Homo sapiens); KOR beta-arrestin recruitment, luminescence; higher % means a stronger effect; activation, % at 10 µM, or EC50 in µM where a hit was titrated; 280,000 tested, 0.02% active; in the data active = activation above about 50%, passing the limit was not always enough; note: a part of the inactive calls stands beside numbers as strong as those of hits
GPR55 LPI antagonism – GPR55 antagonists blocking LPI-driven arrestin recruitment, primary screen, imaging, U2OS, beta-arrestin-GFP, LPI agonist (AID 2013) | inhibition, % at 10 µM, or IC50 in µM where a hit was titrated | G-protein coupled receptor 55 (Homo sapiens) | 290,000 tested, 0.13% active | U2OS GPR55 beta-arrestin-GFP translocation imaging, LPI antagonism; higher % means a stronger effect;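 active = spots per cell inhibited over 60%, with over 100 cells counted and total cytoplasm intensity under 500,000; inconclusive = wells with under 100 cells, flagged as likely toxic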;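 note: U2OS cells stably carrying GPR55 and arrestin-GFP stimulated by 5 µM LPI near EC80; imaged beta-arrestin-GFP aggregate spots per cell after agonist stimulation; plate controls were LPI-stimulated DMSO wells for no effect and DMSO wells without LPI for full effect; some results filed as inactive read as strong as hits; confirmed hits need IC50 under 10 µM and bright autofluorescent wells are also inconclusive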
Myeloid diff MLP – induction of myeloid progenitor differentiation, primary screen, cell-based, flow cytometry, MLPCN library. ER-HoxA9 myeloid progenitors, lysozyme-GFP differentiation. calls only at 10 µM. 360,000 tested, 1% active. AID 624256, 2012;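 active = normalized GFP-positive differentiation at or above the plate's own cutoff, the solvent-only control mean plus 3 SD; inconclusive = no clear call, values can overlap the other calls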;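 note: cells exposed to compound for four days before flow analysis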
KOR beta-arrestin-2 – KOR antagonists, beta-arrestin recruitment, cell-based, luminescence, uHTS (AID 1778) | Kappa-type opioid receptor (Homo sapiens) | KOR beta-arrestin recruitment, luminescence, antagonist mode; higher % means a stronger effect | inhibition, % at 10 µM; hits with a dose series show IC50 in µM | 290,000 tested, 0.091% active; in the data active = inhibition above about 50%; note: strong numbers were not always called active
GPR35 arrestin U2OS – GPR35 antagonists blocking zaprinast-driven arrestin recruitment, primary screen, imaging, U2OS, beta-arrestin-GFP, zaprinast agonist (AID 2058); 290,000 tested, 0.052% active; inhibition, % at 10 µM, or IC50 in µM where a hit was titrated; U2OS GPR35 beta-arrestin-GFP translocation imaging, zaprinast antagonism; higher % means a stronger effect;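 active = inhibition of at least 50% with at least 30 cells and total cytoplasm GFP at most 10,000,000; inconclusive = under 30 cells or total GFP of 10,000,000 plus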
Myeloid diff MLP GFP+ MAC1+ % – further read-out of Myeloid diff MLP, marked with its call; GFP+ MAC1+ double positive, %; measured here: differentiation confirmed by MAC1 staining
The depositor's hits bear a star; i = inactive; ? = inconclusive; . = not tested or not shown; + = active, no number; & = joins results of further samples; [ ] = dose if it differs, or a comment. The list is partial; count on the stated rates, not on these rows.

SMILES	HIV fusion peptide	GPR55 beta-arrestin	KOR beta-arrestin-1	GPR55 LPI antagonism	Myeloid diff MLP	Myeloid diff MLP GFP+ MAC1+ %	KOR beta-arrestin-2	GPR35 arrestin U2OS
COc1ccc(-c2cc(C)no2)cc1S(=O)(=O)N1CCN(c2ccccc2F)CC1	-2.3%	-0.3%	-6.5%	0%	i	1.0	7%	18%
CCCc1nn(-c2ccccc2)c2c1C(c1cccs1)C(C#N)=C(N)O2 (stereo unspecified)	-1.7%	0.3%	0.3%	29%	.	.	21%	9%
COc1ccc(C2C(C(=O)N3CCOCC3)=C(C)NC3=C2C(=O)CC(C)(C)C3)cc1O (stereo unspecified)	-1.5%	-0.2%	-5.6%	-5%	i	1.4	4%	5%
CC(=O)c1cc2c(cc1NC(=O)c1c(-c3ccccc3)noc1C)OCO2	0.9%	0.3%	1.3%	3%	i	1.0	15%	6%
S=c1[nH]nc(C2CCCCC2)n1/N=C/c1ccncc1	-0.9%	0.7%	-6.5%	-3%	i	0.3	8%	19%
N=C1SC(c2ccccc2)C(=O)N1c1ncc(Cc2ccccc2Cl)s1 (stereo unspecified)	64%	-0.2%	-2.4%	6%	i	2.2	27%	-12%
CCOC(=O)C1=C(C)NC(=O)NC1c1ccoc1 (stereo unspecified)	0.6%	0.2%	0.6%	.	i	3.1	-8%	-2%
O=C(Nc1ccc([N+](=O)[O-])cc1)Nc1nc(-c2ccc(Cl)s2)cs1	1.7%	-0.3%	16%	-9%	i	0.8	-85%	-13%
Cc1cccc(C(=O)NNC2=C(C(=O)C(F)(F)F)CCC2)c1O	46%	-0.1%	-0.7%	-9%	i	1.0	-60%	2%
COc1cccc2[nH]c3c(N4CC(C)CC(C)C4)ncnc3c12 (stereo unspecified)	-0.3%	-0.1%	3.8%	17%	.	.	-12%	-3%
CCc1nnc(NC(=O)c2nc(S(=O)(=O)Cc3ccc(C)cc3)ncc2Cl)s1	0.2%	0.2%	-6.4%	8%	?	.	2%	24%
Nc1c(Cl)ncnc1N/N=C/c1ccccn1	33%	-0.4%	1.3%	24%	.	.	.	7%
CS(=O)(=O)N1CCN(c2ccc(C(=O)NC3C4CC5CC(C4)CC3C5)cc2[N+](=O)[O-])CC1 (stereo unspecified)	-1.1%	0.2%	6.0%	7%	i	1.0	-22%	-2%
Cc1ccc(C(=O)Nc2cccc(C(=O)N3CCOCC3)c2)cc1	2.0%	0.3%	-12%	4%	i	0.9	-4%	5%
COc1cccc(N(C(=O)CCl)C(C(=O)NCCc2ccccc2)c2cccs2)c1 (stereo unspecified)	2.3%	4.6%	8.1%	-5%	i	2.1	-7%	-1%
COc1ccc(CCNC(=O)C(C)n2nc(C)c3c(C)n(-c4ccc(C)cc4)nc3c2=O)c(OC)c1 (stereo unspecified)	-0.4%	-0.1%	-7.9%	0%	?	.	-11%	3%
Cc1c(C(=O)N2CCN(Cc3ccc4c(c3)OCO4)CC2)sc2ncnc(N3CCN(c4ccccc4)CC3)c12	-1.1%	0.2%	2.7%	-19%	i	0.0	-66%	-11%
O=C1NC(c2ccc(Br)cc2)Nc2sc3c(c21)CCC3 (stereo unspecified)	31%	-0.1%	-1.5%	-1%	i	1.9	32%	18%
c1ccc(CNc2ncnc3ccccc23)cc1	-1.9%&-0.8%	-0.3%&-0.1%	31%&-4.3%	-13%&-4%	i	0.5&4.1	-19%	-2%&-6%
CCOC(=O)c1cnn(-c2nc(-c3ccc(F)cc3)cs2)c1C(F)(F)F	2.1%	-0.1%	4.5%	-5%	i	2.0	-12%	29%
CN(C)S(=O)(=O)Oc1ccsc1C(=O)Nc1cccc(Cl)c1	-0.7%	-0.1%	2.8%	-10%	i	0.5	-4%	-12%
O=C(NC1CCCCC1)C(c1cccnc1)N(C(=O)CCl)c1ccc(F)cc1 (stereo unspecified)	2.0%	-0.2%	9.3%	4%	i	0.9	7%	1%
C/C(=N/NC(=O)c1ccc(NC(=O)c2ccc(F)cc2)cc1)c1ccccc1	-0.7%	-0.1%	19%	-14%	i	0.0	16%	6%
Oc1ccc(N=Nc2ccc3c(c2)OCCO3)c2cccnc12	-3.8%	0.2%	-8.9%	19%	?	.	68%*	7%
C=CCSc1nsc(NC(=O)Nc2cccc(C(C)=O)c2)n1	2.0%	-0.3%	14%	-5%	i	0.5	5%[20 µM]	-12%
CC(=O)N1CC(C)Sc2ccc(S(=O)(=O)NCCc3ccc(C)cc3)cc21 (stereo unspecified)	0.2%	-0.4%	4.7%	-12%	i	5.6	-47%	6%
CC[n+]1c(/C=C2\Sc3ccccc3N2C)ccc2cccc(C)c21	20%	-0.1%	3.4%	?	?	.	-5%[20 µM]	?
Cc1ccc(S(=O)(=O)CC#CCOC(=O)c2ccc([N+](=O)[O-])cc2)cc1	2.9%	-0.1%	1.2%	36%	.	.	1%	12%
O=S(=O)(NCCOCC(F)(F)C(F)F)c1ccc2oc3ccccc3c2c1	-1.0%	-0.2%	-1.1%	29%	i	0.5	-6%	-6%
Cc1ccc(C(=O)NC(=S)N(C)C2CCCCC2)cc1Br	-2.3%	0.0%	-2.6%	11%	i	1.2	5%	-7%
Cc1cc(C)c(C)c(S(=O)(=O)N2CCN(c3ncnc4sc(C)c(C)c34)CC2)c1C	1.7%	-0.2%	5.3%	52%	i	2.9	-30%	8%
Cc1cc(C)c(S(=O)(=O)/N=C2\C=C(Nc3ccc(C(=O)O)cc3)C(=O)c3ccccc32)c(C)c1	35%	-0.2%	2.2%	6%	i	1.3	-49%	8%
COc1cccc(N2CCN(c3ncnc4c3[nH]c3ccccc34)CC2C)c1 (stereo unspecified)	0.6%	-0.3%	3.6%	33%	.	.	22%	-9%
COc1ccccc1NC(=O)C(=O)Nc1ccccn1	-0.2%	0.3%	13%	?	i	5.0	-25%	-12%
COc1ccc(C(=O)Nc2ccccc2C(=O)N/N=C/c2ccccn2)cc1OC	4.2%	0.4%	-7.2%	24%	+	1.2*	7.9µM*	3%
C/C(=N\NC(=O)c1cc2ccccc2cc1O)c1cc2ccccc2o1	49%	0.5%	-1.0%	-6%	i	0.4	72%	-14%
Cc1sc2ncnc(Sc3nnnn3-c3ccc(Cl)cc3)c2c1C	16%	-0.2%	-5.0%	3%	i	1.0	-9%	13%
COc1ccc(OC)c(/C=C/c2ccc3cccc(O)c3n2)c1	-0.6%	-0.3%	-3.8%	11%	i	0.6	41%	-6%
COc1ccccc1Nc1nc(-c2sc(NC(=O)c3ccco3)nc2C)cs1	5.4%	-0.1%	1.4%	18%	i	2.3	11%	16%
COc1ccc(C(NC(C)=O)c2ccc3cccnc3c2O)c(OC)c1 (stereo unspecified)	-2.1%	-0.1%	0.4%	9%	?	.	7%	6%
COc1ccc(-c2c(C(F)(F)F)[nH]n3c(=O)cc(-c4ccccc4)nc23)cc1	67%	-0.1%	3.1%	12%	i	0.6	-46%	15%
Cc1cc(C(=O)NC2CCCc3c2cnn3-c2ccc(C(C)(C)C)cc2)nn1C (stereo unspecified)	-0.1%	-0.1%	-2.2%	-8%	?	.	6%	2%
CC(=O)N1CCCc2cc(S(=O)(=O)N3CCCC(C(=O)N4CCN(c5cccc(Cl)c5)CC4)C3)ccc21 (stereo unspecified)	-1.4%	-0.2%	1.4%	0%	i	4.3	-28%	9%
CCOC(=O)c1sc(NC(=O)CSc2nc3c(cc2C#N)CCCCCC3)c(C#N)c1C	-1.1%	-0.2%	-2.7%	1%	i	2.3	10%	3%
O=C(NCc1cccnc1)/C(=C/c1ccc(-c2ccc(Cl)cc2)o1)S(=O)(=O)c1ccccc1	0.5%	.	96%	12%	.	.	9%	13%
Cc1ccccc1Oc1ccc(-c2nc(N)nc(N)n2)cc1	-1.1%	0.0%	3.2%	-8%	i	1.5	9%	-9%
CCN(CC)S(=O)(=O)c1cccc(NC(=O)Nc2cccc(C(F)(F)F)c2)c1	-0.8%	0.3%	6.8%	20%	i	0.1	-13%	-9%
Cc1nnc(N2CCCC(C(=O)Nc3cc(F)ccc3F)C2)c2nn(-c3ccccc3)c(C)c12 (stereo unspecified)	2.5%	0.2%	2.8%	8%	i	1.2	-32%	-1%
CCCCOC(=O)c1[nH]c2c(c1C)C(=O)CC(c1cc(OC)c(OC)c(OC)c1)C2 (stereo unspecified)	-2.8%	0.2%	-0.6%	-10%	+	11*	29%	15%
COc1ccccc1-c1cc(C(F)(F)F)nc(S(C)(=O)=O)n1	1.7%	-0.1%	-5.3%	17%	i	0.2	22%	-6%
CC(C)c1ccc(S(=O)(=O)c2cc3cc(Br)ccc3oc2=O)cc1	-0.3%	-0.2%	4.1%	8%	i	0.8	-15%	20%
Nc1ncnc(NCc2ccc(F)cc2)c1[N+](=O)[O-]	0.0%	-0.1%	-3.4%	-2%	i	0.2	20%[20 µM]	-14%

Some of the entries above in another layout.
Each structure is followed by: HIV fusion peptide	GPR55 beta-arrestin	KOR beta-arrestin-1	GPR55 LPI antagonism	Myeloid diff MLP	Myeloid diff MLP GFP+ MAC1+ %	KOR beta-arrestin-2	GPR35 arrestin U2OS
> Cc1cc(C(=O)NC2CCCc3c2cnn3-c2ccc(C(C)(C)C)cc2)nn1C (stereo unspecified)
→ -0.1%	-0.1%	-2.2%	-8%	?	.	6%	2%
> CC(=O)N1CCCc2cc(S(=O)(=O)N3CCCC(C(=O)N4CCN(c5cccc(Cl)c5)CC4)C3)ccc21 (stereo unspecified)
→ -1.4%	-0.2%	1.4%	0%	i	4.3	-28%	9%
> CCOC(=O)c1sc(NC(=O)CSc2nc3c(cc2C#N)CCCCCC3)c(C#N)c1C
→ -1.1%	-0.2%	-2.7%	1%	i	2.3	10%	3%
> O=C(NCc1cccnc1)/C(=C/c1ccc(-c2ccc(Cl)cc2)o1)S(=O)(=O)c1ccccc1
→ 0.5%	.	96%	12%	.	.	9%	13%
> Cc1ccccc1Oc1ccc(-c2nc(N)nc(N)n2)cc1
→ -1.1%	0.0%	3.2%	-8%	i	1.5	9%	-9%
> CCN(CC)S(=O)(=O)c1cccc(NC(=O)Nc2cccc(C(F)(F)F)c2)c1
→ -0.8%	0.3%	6.8%	20%	i	0.1	-13%	-9%
> Cc1nnc(N2CCCC(C(=O)Nc3cc(F)ccc3F)C2)c2nn(-c3ccccc3)c(C)c12 (stereo unspecified)
→ 2.5%	0.2%	2.8%	8%	i	1.2	-32%	-1%
> CCCCOC(=O)c1[nH]c2c(c1C)C(=O)CC(c1cc(OC)c(OC)c(OC)c1)C2 (stereo unspecified)
→ -2.8%	0.2%	-0.6%	-10%	+	11*	29%	15%
> COc1ccccc1-c1cc(C(F)(F)F)nc(S(C)(=O)=O)n1
→ 1.7%	-0.1%	-5.3%	17%	i	0.2	22%	-6%
> CC(C)c1ccc(S(=O)(=O)c2cc3cc(Br)ccc3oc2=O)cc1
→ -0.3%	-0.2%	4.1%	8%	i	0.8	-15%	20%
> Nc1ncnc(NCc2ccc(F)cc2)c1[N+](=O)[O-]
→ 0.0%	-0.1%	-3.4%	-2%	i	0.2	20%[20 µM]	-14%

Screens from PubChem.
